# Marburg entry: inhibitors of Marburg virus binding or entry into cells. Marburg virus pseudotype entry/binding inhibition, cell-based; control for the full effect not named in the record; many of its hits are not listed in these tables. Potency, µM (top dose mostly 49.2 µM), for inactives: top-dose activity change, negative = inhibition, actives largely listed as inhibitors. 18,000 tested, 6.5% active. AID 720532; active means well fitted inhibition curve with a large enough effect; inconclusive means small, poorly fitted or top-dose-only effect; inactive means no such curve, though single readings can be large or run the other way; tested in HEK293 cells; note: luciferase read-out
# LASV entry inh: Lassa virus entry inhibition | AID 720533 | Potency, µM (doses to about 49.2 µM), without a hit: at the highest dose activity change, negative = inhibition, actives largely listed as inhibitors | Lassa virus pseudotyped entry inhibition, cell-based qHTS; control for the full effect not named in the record; many of its hits are not listed in these tables | 18,000 tested, 4.1% active; active = well fitted inhibition curve with a large enough effect; inconclusive = small, poorly fitted or top-dose-only effect; inactive = no such curve, though single readings can be large or run the other way; tested in HEK293 cells; note: luciferase read-out
# Starred values were filed as active, the others as inactive; ? = inconclusive; . = no result given; & = joins results of further samples; ! = not confirmed by another sample; [ ] = dose if it differs, or a comment. % is set by controls: 0 for no effect and ±100 for the full control effect; potency is the fitted concentration of half-maximal effect.
Molecule	Marburg entry	LASV entry inh
Cc1cccc([C@@H]2CN(C)CCc3c2cc(O)c(O)c3Cl)c1	-16.7%	-4.7%
COc1cc(-c2ccc(Cl)cn2)cc2c1OCCN(S(=O)(=O)C[C@]13CC[C@H](CC1=O)C3(C)C)C2	-21.7%	14.6%
CC(C)(C)OC(=O)NCCCCC1=CC2=CC(=O)C(C)(O)C(=O)C2=CO1 (stereo unspecified)	-3.4%	2.1%
Cc1nc2[nH]c(=O)[nH]c(=O)c2[nH]1	-0.2%	5.2%
N[C@H](Cc1ccc(Cl)cc1)C(=O)O	-4.8%	4.8%
NC(=O)C1c2ccccc2CCc2ccccc21	4.0%	0.3%
NC(=O)c1cc(-c2ccncc2)cc(-c2ccccc2)c1N	?	.
Cc1c(C(=O)NCc2ccccc2Cl)sc2ncnc(NCC3CCCO3)c12 (stereo unspecified)	-15.5%	-3.5%
Nc1nc(-c2cccc(Cl)c2)c(-c2ccc3ncccc3n2)s1	5.3%	18.2%
C=CCOC(=O)N[C@H](/C(C(=O)OC)=C(\C)NCc1ccccc1)c1ccc(Br)cc1	-3.5%	1.1%
CCN1CCCC1CNC(=O)c1cnn(-c2nccc(-c3cccs3)n2)c1C1CC1 (stereo unspecified)	-16.5%	-0.6%
C=CCN1C(=O)N(Cc2ccccc2)c2ccccc2S1(=O)=O	11.0%	15.9%
O=C(NCC1(N2CCOCC2)CCCCC1)c1cnn(-c2nccc(-c3cccs3)n2)c1C1CC1	?	?
CCS(=O)(=O)N1CCC[C@H]2CN3CCc4cc(OC)ccc4[C@@H]3C[C@@H]21	3.4%&6.8%	-6.1%&1.1%
Cc1csc(SCC(=O)N2CCOc3ccc(C(O)C4CCCCC4)cc3C2)n1 (stereo unspecified)	?	-15.2%
Cc1cc2oc(=O)cc(CN3CCN(c4ccccc4)CC3)c2cc1Cl	-4.4%	-32.0%
C=CCN1c2ccccc2[C@]23CCC(=O)N(Cc4ccco4)C2=NC(C(=O)OC)=C(C(=O)OC)[C@H]13	-1.4%[8.59 µM]	-14.3%[8.59 µM]
O=S(=O)(c1ccc(Cl)cc1)c1cc(Cl)c(Cl)cc1Cl	0.0%	-5.8%
CC1(C)C2C[C@@H](O)[C@]3(C)C(CC[C@@]4(C)[C@H](c5ccoc5)C[C@H]5O[C@]543)[C@@]2(C)[C@@H](O)C[C@H]1O (stereo partly specified)	-10.7%	-5.9%
COc1cc2oc(=O)cc(CN3CCN(C(C)=O)CC3)c2cc1Cl	4.1%	-32.7%
CCOC(=O)C1(C)Oc2ccccc2C(C(=O)OC)=C1C(=O)OC (stereo unspecified)	30.4%[activator]	-8.4%
COc1ccc(C2=CC3=C(Br)C(=O)C(C)(OC(=O)c4ccc(Cl)nc4)C(=O)C3=CO2)cc1 (stereo unspecified)	3.7%	-12.3%
C[C@@]12CCC(Cl)C[C@H]1CCC1C2CC[C@]2(C)C(=O)CCC12 (stereo partly specified)	4.9%	6.9%
Nc1ccc(O)c2c(=O)cc(-c3ccccc3Cl)oc12	55.3%[activator]	8.9%
CCN1C(=NCc2cc(OC)c(OC)c(OC)c2)NC(c2cccc(F)c2)C(C(=O)OC)=C1C (stereo unspecified)	-5.5%[8.59 µM]	22.3%[8.59 µM]
O=C(NCc1ccccn1)c1cnn(-c2nccc(-c3cccs3)n2)c1C1CC1	-8.4%	-11.0%
Cc1ccc(O)c([C@H](CCN(C(C)C)C(C)C)c2ccccc2)c1	10µM*	?
CCCCCCCC1=Cc2ccccc2C(CC(=O)c2ccccc2)N1C(=O)OC (stereo unspecified)	?	-8.3%[8.59 µM]
CC(CCc1ccccc1)NC(C)C(O)c1ccc(O)cc1 (stereo unspecified)	?	-2.0%&-16.3%
O=C(c1cc(-c2ccccc2)on1)N1CCOc2ccc(CN3CCN(c4ccccn4)CC3)cc2C1	0.2%	-2.2%
C=N[C@H](C(=O)N[C@@H]1C(=O)N2[C@@H]1SC(C)(C)[C@@H]2C(=O)O)c1ccccc1	6.5%[17.8 µM]	18.1%[17.8 µM]
COCCN1C(=O)NC(c2cccc(F)c2)C(C(=O)OC)=C1C (stereo unspecified)	1.2%[8.59 µM]	6.1%[8.59 µM]
O=C(C[C@H]1C(=O)N(Cc2cccnc2)C[C@@H]1Cc1ccccc1)Nc1ccc(Br)cc1	-18.8%	-13.9%
CCCCCN=c1ccn(Cc2ccccc2)c2ccccc12	14.1µM*	20µM*
CCCCNc1cccc2c1S(=O)(=O)N[C@H](C)CO2	47.7%	9.0%
CC(C)(O)C#Cc1ccc(CN2CCc3nnc(CNC(=O)c4cccc(F)c4)n3CC2)cc1	0.7%	-1.2%
COC(=O)CC=C[C@@H](C)[C@@H](C=NO[C@@H](C)c1cn([C@H](CO)Cc2ccccc2)nn1)NS(=O)(=O)c1ccc(C)cc1	-12.7%[8.59 µM]	.
COc1cc(C(=O)NC2CCCNC2)cc(OC)c1OC (stereo unspecified)	-1.8%	-0.6%
O=C(/C=C/c1ccc(O)c(O)c1)c1ccc(O[C@@H]2O[C@H](CO)[C@@H](O)[C@H](O)[C@H]2O)c(O)c1O	3.16µM*	1.7%
CC(=O)SC[C@@H](C)C(=O)N1CCC[C@H]1C(=O)N[C@@H](Cc1ccccc1)C(=O)O	13.3%	-6.9%
COc1ccccc1-c1ccnc(-n2ncc(C(=O)NCCc3cccnc3)c2C)n1	3.3%	-21.7%
CCCCCCCCCC(=O)OCC(CO)OC(=O)CCCCCCCCC (stereo unspecified)	1.4%&7.8%	-3.9%&-3.5%
CCCCCCCCC#Cc1nc(C)ccc1OC	30.5%[activator]	2.7%
COc1cc([C@@H]2CC(=O)c3c(O)cc(O)cc3O2)ccc1O	25.0%	17.4%
Cc1ccc2c(c1)CN(CCNC(=O)c1c(-c3ccccc3)noc1C)CC(C)O2 (stereo unspecified)	-14.5%	-8.9%
CCCCC[C@@H](O)C1C(=O)OC(C)[C@H](O)/C=C/C=C/C=C/C=C/C=C(\C)C(O)C(O)C(O)C[C@H](O)C[C@H](O)C[C@H](O)C[C@H](O)C[C@@H]1O (stereo partly specified)	15.8µM*!	-5.2%&0.2%
CC1(C)C2(Cl)C(Cl)C(Cl)C(Cl)(C(Cl)Cl)C1(Cl)C2Cl (stereo unspecified)	3.8%	0.5%
O=C(O)[C@@H]1CCCNC1	-11.9%[17.8 µM]	1.7%[17.8 µM]
Cc1cccc(C2=NN(c3ccccc3)[C@@H](C(=O)N3CCOC3=O)[C@@H]2c2ccccc2)c1	2.8%	-22.9%
COc1ccccc1CN1CCC2(CC1)c1ccccc1[C@@H](NC(=O)c1ccco1)[C@@H]2OC	-2.6%	-23.1%
Cc1cccnc1-c1cccc2c1OC(CNC(=O)C1CCCc3c1[nH]c1ccccc31)C2 (stereo unspecified)	-15.1%	-7.6%
O=C(O)c1cc(=O)c2c(Cl)cc(Cl)cc2[nH]1	17.7%&4.6%&6.6%	0.7%&10.1%&-1.2%
C=C(C)C(O)/C=C/c1ccc(C(F)(F)F)cc1 (stereo unspecified)	-7.8%&-10.8%	1.7%&-1.4%
COC(=O)Nc1nc2ccc(Oc3ccc(NC(=O)Nc4ccccc4)cc3)cc2[nH]1	?	?
NC[C@H](CC(=O)O)c1ccc(Cl)cc1	?	0.3%
CCCCN1CC(COCc2ccccc2)OCCS1(=O)=O (stereo unspecified)	8.6%	14.1%
Cc1cccc(-c2cnc(C)nc2C2CCCN(C(=O)c3cccc(Cn4cccn4)c3)C2)c1 (stereo unspecified)	-5.4%	-10.9%
CC(=O)N[C@@H](C)C(=O)NCC1Cc2cc(C)cc(-c3cnccn3)c2O1 (stereo partly specified)	-13.0%	-10.1%
CCOC(=O)CN1C(=O)[C@@]2(CC(C)=CC[C@@H](COc3ccccc3)O2)c2c(Br)cccc21	-34.9%[8.59 µM]	-27.7%[8.59 µM]
COc1cc(-c2coc3cc(O[C@H]4OC(CO)C(O)C(O)C4O)c(OC)c(O)c3c2=O)cc(O)c1OC (stereo partly specified)	47.9%[activator]	50.5%[activator]

# Later entries
Molecule	Marburg entry	LASV entry inh
CCCCCCCC/C=C\C/C=C\C/C=C\CCCC(=O)O	15.0%&2.5%	-6.8%&2.2%
Cc1cc2c(c(-c3cnccn3)c1)OC(CNC(=O)c1cc(Cl)ccc1F)C2 (stereo unspecified)	25.1µM*	-1.9%
COc1cc(=O)n2c(c1C(=O)N(C)Cc1nonc1C)CCN(C(=O)c1ccc(C)c(C)c1)CC2	-18.9%	-3.5%
COCc1c(C(=O)N2CCC(N(C)C)C2)cnn1-c1ncc2c(n1)-c1ccccc1CCC2 (stereo unspecified)	-40.3%	-5.4%
CC1(C)C(O)CC(O)[C@]2(C)C1CC(=O)[C@]1(C)C2CC[C@@]2(C)C(c3ccoc3)OC(=O)C3OC321 (stereo partly specified)	-25.5%	-10.5%
Cc1ccc([C@H]2C[C@@H](n3cc(-c4ccc(F)cc4)nn3)[C@H](O)CN2C(=O)c2cccs2)cc1	-29.0%	-20.6%
COc1cccc(-c2ccc(O)c(CNCc3cccc(OC)c3OC)c2)n1	-11.3%	1.7%
CC(=O)N[C@@H](Cc1ccc(O)cc1)C(=O)N[C@H](C(=O)N[C@@H](C)C(=O)N[C@H](C=O)CC(=O)O)C(C)C	-6.7%	1.9%
COc1cc(C)c(CN2C[C@H](Sc3nc4ccccc4[nH]3)C[C@H]2C(=O)N(C)C)cc1C	23.4%	-6.3%
COC12CC[C@@]3(C[C@@H]1C(C)(O)C(C)(C)C)[C@H]1Cc4ccc(O)c5c4[C@@]3(CCN1CC1CC1)[C@H]2O5 (stereo partly specified)	15.8µM*	28.2µM*
c1ccc2sc(SNC3CCCCC3)nc2c1	-3.1%	1.9%
C#C[C@]1(O)CC[C@H]2[C@@H]3CCc4cc(O)ccc4[C@H]3CC[C@@]21C	?	?
CC(C)=CCC/C(C)=C/COc1c2occc2cc2ccc(=O)oc12	9.0%	-3.6%
COc1ccccc1CNc1ccnc(-c2ccc3c(c2)OCO3)n1	-5.5%	-3.9%
Cc1c(C(=O)N(C)Cc2cccc3ncccc23)cnn1-c1nccc(-c2ccccc2F)n1	9.5%	-10.4%
CC1=CCC2CC1C2(C)C (stereo unspecified)	-9.0%	-9.4%
CN(C)Cc1ccccc1-c1ccc2ncnc(NCc3cccs3)c2c1	8.91µM*	-5.0%
O=S(=O)(CCc1ccccc1)c1nnnn1-c1ccccc1	-20.7%	8.1%
COc1ccccc1C1CN(Cc2ccccc2O)Cc2ccccc2O1 (stereo unspecified)	-38.3%	-8.7%
Cc1oc(-c2ccccc2NC(=O)C2CCC2)nc1CNC(=O)c1ccc2ccccc2c1	-8.1%	-10.5%
ClC1C(Cl)C(Cl)C(Cl)C(Cl)C1Cl (stereo unspecified)	-2.1%&6.8%	-17.5%&-9.3%
NCCC[C@@H](CC(=O)N[C@@H]1CCNC[C@H]1C(=O)N[C@H](CC(=O)N[C@@H](CCC(=O)O)CC(=O)O)Cc1ccccc1)NC(=O)C[C@H](Cc1ccccc1)NC(=O)[C@@H]1CNCC[C@H]1N	3.7%	3.2%
C[C@@H]1O[C@@H](OC[C@H]2O[C@@H](Oc3c(-c4ccc(OCCO)c(OCCO)c4)oc4cc(OCCO)cc(O)c4c3=O)[C@H](O)[C@@H](O)[C@@H]2O)[C@H](O)[C@H](O)[C@H]1O	25.9%	19.7%
Nc1nc2c([nH]c(=O)n2C2OC(CO)C(O)C2O)c(=O)[nH]1 (stereo unspecified)	3.4%	-6.4%
Cc1ccccc1CN1[C@@H](C)[C@@H](c2ccccc2)Oc2c(Cl)cccc2S1(=O)=O	11.3%	13.5%
CC(C)=CCCC(C)=CCN1C(=O)[C@]2(OCCC=C[C@H]2C)c2ccccc21	2.9%[8.59 µM]	.
Cc1cccc(C)c1OCc1cn(CC(=O)c2ccc(O)cc2)nn1	12.9%	11.4%
CCc1cc(C(=O)N2CCOc3ccc(CN4CCN(Cc5ccccn5)CC4)cc3C2)no1	?	5.1%
CCOC(=O)C1C(C=C(C)C)C1(C)C (stereo unspecified)	8.6%	1.1%
CCCC(C)(C)C(=O)Nc1ccc(Cl)cc1	8.6%	7.6%
Cc1ccc(C2CC(=O)Oc3cc(C)c(Cl)c(C)c32)cc1 (stereo unspecified)	-17.4%	?
FC(F)(F)C(Cl)Br (stereo unspecified)	59.3%[activator]	10.6%
Nc1ccn([C@H]2CC[C@@H](CO)O2)c(=O)n1	4.7%&2.1%&-1.1%	-8.0%&1.8%&-9.9%
CCC(=O)O[C@]1(c2ccccc2)CCN(C)C[C@H]1C	6.8%	-4.4%
NC(N)=NN=C(/C=C/c1ccc([N+](=O)[O-])o1)/C=C/c1ccc([N+](=O)[O-])o1	14.1µM*	6.31µM*
COc1ccc([C@H]2C[C@H](n3cc(-c4ccc(F)cc4)nn3)[C@@H](O)CN2C(=O)c2cccs2)cc1	?	.

# An excerpt from above in order of molar mass, smallest number first.
Molecule	Marburg entry	LASV entry inh
FC(F)(F)C(Cl)Br (stereo unspecified)	59.3%[activator]	10.6%
Nc1ccn([C@H]2CC[C@@H](CO)O2)c(=O)n1	4.7%&2.1%&-1.1%	-8.0%&1.8%&-9.9%
CCC(=O)O[C@]1(c2ccccc2)CCN(C)C[C@H]1C	6.8%	-4.4%

# Bioassay records: PubChem BioAssay, National Center for Advancing Translational Sciences (NCATS)
